HIV Env fusion: HIV envelope-mediated fusion inhibition; inhibition, % at 12.3 µM; HeLa-JRFL Env/CEM21 cell fusion, luciferase; 360,000 compounds, 1.1% hits;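 active = mean replicate inhibition score of at least 50 and every replicate individually at or above 50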;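 also: 0% = plate neutral controls and 100% = maraviroc near 300 nM; one replicate is shown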
The depositor's hits bear a star; [ ] = dose if it differs, or a comment. These rows are one share of the data (hit frequency here may not be typical).

molecule	HIV Env fusion
CN(C)C(=O)C[C@@H]1CC[C@@H]2[C@H](COC[C@@H](O)CN2C(=O)c2ccncc2)O1	-18[16.7 µM]
C[C@H](CO)N1C[C@H](C)[C@H](CN(C)S(C)(=O)=O)Oc2ccc(NC(=O)CCCN(C)C)cc2C1=O	-16[16.7 µM]
C[C@H]1CN([C@@H](C)CO)C(=O)c2cccc(NS(=O)(=O)c3ccccc3)c2O[C@H]1CN(C)S(=O)(=O)c1cccs1	-12[16.7 µM]
Cc1noc(C)c1NC(=O)N(C)C[C@H]1Oc2ccc(NC(=O)CCC(F)(F)F)cc2C(=O)N([C@H](C)CO)C[C@H]1C	-3[16.7 µM]
COC(=O)C[C@@H]1C=C[C@H](NC(=O)Nc2ccc(C(F)(F)F)cc2)[C@H](CO)O1	10[16.7 µM]
C[C@@H]1CN([C@H](C)CO)C(=O)c2c(c3ccccc3n2C)-c2ccccc2CO[C@@H]1CN(C)C(=O)[C@H](Cc1ccccc1)N(C)C	-83[16.7 µM]
COc1ccc(C(C)c2cc3c(cc2OCC(=O)O)OCO3)cc1 (stereo not given)	16
C[C@@H]1CN([C@H](C)CO)C(=O)Cc2cc(NC(=O)CCN3CCOCC3)ccc2O[C@@H]1CN(C)Cc1ccncc1	-5[16.7 µM]
CC(C)(C)S(=O)(=O)N1C[C@H]2CC(=O)C=C2[C@@H]1CCO	-10
CNC[C@H]1Oc2ccc(NC(=O)Cc3ccccc3)cc2CC(=O)N([C@H](C)CO)C[C@@H]1C	4[16.7 µM]
CCOC(=O)CNC(=O)N(C)[C@H]1C[C@H]2c3[nH]c4c(-c5ccc6c(c5)OCO6)cccc4c3CCN2C(=O)[C@H]1[C@H](C)O	-112
COc1ccc2c3c([nH]c2c1)[C@H](CO)NCC31CCN(S(=O)(=O)c2ccccc2)CC1	-12[16.7 µM]
CO[C@H]1CN(C)C(=O)c2cc(NC(=O)Cc3ccccc3)ccc2OC[C@@H](C)N(C(C)=O)C[C@H]1C	0[16.7 µM]
CNC(=O)C[C@H]1CC[C@H]2[C@@H](COc3ccc(NC(=O)c4cc(F)cc(F)c4)cc3C(=O)N2C)O1	-9[16.7 µM]
CC(C)c1[nH]nc2c1C(c1cccc(C(F)(F)F)c1)N(Cc1ccccc1)C2=O (stereo not given)	-10
COc1ccc(CN(C)C[C@@H]2Oc3ccc(NC(=O)NC(C)C)cc3C(=O)N([C@H](C)CO)C[C@H]2C)cc1	-7[16.7 µM]
C[C@@H]1CCCCO[C@@H](CN(C)C(=O)CCC(F)(F)F)[C@H](C)CN([C@@H](C)CO)C(=O)c2cc(NS(C)(=O)=O)ccc2O1	-3[16.7 µM]
CC(=O)N1[C@@H]2c3ccc(C4=CCCC4)c(=O)n3C[C@@H]2[C@@H](CO)[C@@H]1C(=O)Nc1ccccc1	0[16.7 µM]
COC(=O)C1=C(C)N(Cc2ccccc2C(F)(F)F)C(=NCc2cccc(C(F)(F)F)c2)NC1c1ccc(C(F)(F)F)cc1 (stereo not given)	26
COc1cccc(C(=O)Nc2ccc3c(c2)C(=O)N(C)C[C@@H](OC)[C@H](C)CN(CCc2ccccc2)[C@H](C)CO3)c1	39[16.7 µM]
O=C(C[C@@H]1CC[C@H]2[C@@H](COC[C@@H](O)CN2Cc2cccc(Cl)c2)O1)N1CCCCC1	39[16.7 µM]
O=S(=O)(N1CCCCC1)n1nnc2cc3ccccc3cc21	-2
C[C@@H]1CN([C@@H](C)CO)C(=O)CCCn2nncc2CO[C@@H]1CN(C)Cc1ccc(C(F)(F)F)cc1	-6[16.7 µM]
C[C@H]1CN([C@@H](C)CO)C(=O)Cc2cc(NS(=O)(=O)c3ccccc3)ccc2O[C@@H]1CN(C)C(=O)Nc1ccc2c(c1)OCO2	-27[16.7 µM]
CCCCCCCCN1C(=O)[C@@H](CC(=O)NCc2cccc3ccccc23)C[C@@]2(C(=O)OC)C1=C[C@H](C(C)(C)C)O[C@@H]2C	63*

An excerpt of these results, with values ahead of the structure.
HIV Env fusion	SMILES
63*	CCCCCCCCN1C(=O)[C@@H](CC(=O)NCc2cccc3ccccc23)C[C@@]2(C(=O)OC)C1=C[C@H](C(C)(C)C)O[C@@H]2C
-3[16.7 µM]	Cc1noc(C)c1NC(=O)N(C)C[C@H]1Oc2ccc(NC(=O)CCC(F)(F)F)cc2C(=O)N([C@H](C)CO)C[C@H]1C
-12[16.7 µM]	COc1ccc2c3c([nH]c2c1)[C@H](CO)NCC31CCN(S(=O)(=O)c2ccccc2)CC1

Molecules above containing fluorine, in the order listed:
molecule	HIV Env fusion
Cc1noc(C)c1NC(=O)N(C)C[C@H]1Oc2ccc(NC(=O)CCC(F)(F)F)cc2C(=O)N([C@H](C)CO)C[C@H]1C	-3[16.7 µM]
COC(=O)C[C@@H]1C=C[C@H](NC(=O)Nc2ccc(C(F)(F)F)cc2)[C@H](CO)O1	10[16.7 µM]
CNC(=O)C[C@H]1CC[C@H]2[C@@H](COc3ccc(NC(=O)c4cc(F)cc(F)c4)cc3C(=O)N2C)O1	-9[16.7 µM]
CC(C)c1[nH]nc2c1C(c1cccc(C(F)(F)F)c1)N(Cc1ccccc1)C2=O (stereo not given)	-10
C[C@@H]1CCCCO[C@@H](CN(C)C(=O)CCC(F)(F)F)[C@H](C)CN([C@@H](C)CO)C(=O)c2cc(NS(C)(=O)=O)ccc2O1	-3[16.7 µM]
COC(=O)C1=C(C)N(Cc2ccccc2C(F)(F)F)C(=NCc2cccc(C(F)(F)F)c2)NC1c1ccc(C(F)(F)F)cc1 (stereo not given)	26
C[C@@H]1CN([C@@H](C)CO)C(=O)CCCn2nncc2CO[C@@H]1CN(C)Cc1ccc(C(F)(F)F)cc1	-6[16.7 µM]

Remaining list, next part.
molecule	HIV Env fusion
C[C@@H]1CN([C@@H](C)CO)C(=O)Cc2cc(NC(=O)CCN3CCOCC3)ccc2O[C@@H]1CN(C)C(=O)NC1CCCCC1	3[16.7 µM]
CCCNC(=O)Nc1ccc2c(c1)OC[C@@H](C)N(CCC(F)(F)F)C[C@@H](C)[C@@H](OC)CN(C)C2=O	5[16.7 µM]
COc1ccc(NC(=O)Nc2cccc3c2O[C@@H](CN(C)Cc2ccc4c(c2)OCO4)[C@@H](C)CN([C@H](C)CO)C3=O)cc1	-122[16.7 µM]
CO[C@@H]1CN(C)C(=O)c2cc(NC(=O)C3CC3)ccc2OC[C@@H](C)N(Cc2cncnc2)C[C@@H]1C	-15[16.7 µM]
COC(=O)C1=C(C)N(Cc2cccc(C(F)(F)F)c2)C(=NCc2ccc(OC)cc2)NC1c1ccc(Cl)cc1 (stereo not given)	17
O=C(C[C@H]1CC[C@H]2[C@@H](COC[C@@H](O)CN2Cc2cccc(-c3ccncc3)c2)O1)N1CCOCC1	33[16.7 µM]
CN1C(=O)c2cc(NC(=O)Nc3ccccc3F)ccc2OC[C@H]2O[C@H](CC(=O)NCCc3ccncc3)CC[C@H]21	12[16.7 µM]
CO[C@H]1CC[C@@H]2CCN(C)C(=O)[C@@H](C)N(C)C(=O)c3cc(C#N)ccc3OC[C@H]1O2	12[16.7 µM]
C[C@@H]1CN([C@@H](C)CO)C(=O)c2cc(NC(=O)Nc3ccccc3)ccc2O[C@@H]1CN(C)C	-5[16.7 µM]
Nc1[nH]c(C(=O)c2ccc(Br)cc2)c(-c2ccccc2)c1C(=O)NCCc1c[nH]c2ccccc12	-4
COCCCNC(=O)C[C@H]1C[C@@]2(C(=O)OC)C(=C[C@H](C(C)(C)C)O[C@@H]2C)N(CCC2=CCCCC2)C1=O	60*
CC(C)NC(=O)N(C)C[C@@H]1Oc2ccc(NC(=O)Cn3cnnn3)cc2C(=O)N([C@@H](C)CO)C[C@@H]1C	-14[16.7 µM]
C[C@H]1Cn2cnc(C(=O)N(C)Cc3ccccc3)c2C(=O)N1	11
C[C@H](CO)N1C[C@H](C)[C@@H](CN(C)C(=O)Nc2ccc3c(c2)OCO3)Oc2ccc(NC(=O)Nc3ccc(F)cc3)cc2C1=O	-47[16.7 µM]
CCOC(=O)c1cc2c(c(-c3cccc(C#CCN(C)C)c3)n1)[C@@H](CCO)N(S(=O)C(C)(C)C)C2 (stereo not given in full)	14[16.7 µM]
CCCCCCc1cc2cc(-c3nnc(-c4cccc(OC)c4)o3)c(=O)oc2cc1O	-12
Cc1ccccc1C(=O)NC1CCCCN(C)C1=O (stereo not given)	-5
O=C(Nc1ccc2c(c1)[C@H]1C[C@H](CC(=O)N3CCc4ccccc4C3)O[C@H](CO)[C@H]1O2)c1ccc2c(c1)OCO2	4[16.7 µM]
CC(C)NC(=O)Nc1ccc2c(c1)C(=O)N([C@H](C)CO)C[C@@H](C)[C@@H](CN(C)C(=O)NC(C)C)OCCCC[C@@H](C)O2	19[16.7 µM]
CCC(=O)Nc1ccc2c(c1)C(=O)N(C)C[C@H](OC)[C@H](C)CN(C(=O)CC)[C@@H](C)CO2	0[16.7 µM]
COC(=O)C[C@H]1C[C@@H]2c3cc(NC(=O)NC4CCCC4)ccc3O[C@@H]2[C@H](CO)O1	-6[16.7 µM]
C[C@H]1CN([C@@H](C)CO)C(=O)CCCn2cc(nn2)CO[C@H]1CN(C)S(=O)(=O)c1ccc(Oc2ccccc2)cc1	-11[16.7 µM]
Cc1cccc(CN(C)C[C@H]2OCc3cnnn3CCCC(=O)N([C@@H](C)CO)C[C@H]2C)c1	-6[16.7 µM]
CN(C)C(=O)N1CCN(C(=O)[C@H]2O[C@@H](n3ccc(N)nc3=O)[C@H](O)[C@@H]2O)CC1	16
COC(=O)C1=C(C)N(Cc2ccc(C(F)(F)F)cc2)C(=NCc2ccc(C(F)(F)F)cc2)NC1c1cccc(F)c1 (stereo not given)	-9
Cc1ccccc1-c1ccc2c(c1)O[C@H](CN(C)C(=O)Nc1ccc(F)cc1)[C@@H](C)CN([C@@H](C)CO)S2(=O)=O	51[16.7 µM]
CCCN(C)C[C@H]1OCCCC[C@@H](C)Oc2ccc(NS(=O)(=O)c3ccc(C)cc3)cc2C(=O)N([C@@H](C)CO)C[C@H]1C	5[16.7 µM]
CO[C@@H]1CN(C)C(=O)c2cc(NC(=O)Nc3cc(F)ccc3F)ccc2OC[C@@H](C)NC[C@H]1C	20[16.7 µM]
Nc1ccn([C@@H]2O[C@H](C(=O)N[C@H](Cc3ccccc3)C(=O)NCC(=O)N3CCOCC3)[C@@H](O)[C@H]2O)c(=O)n1	-36
CN1[C@@H]2c3ccc(-c4ccc(F)cc4)c(=O)n3C[C@@H]2[C@@H](CO)[C@@H]1C(=O)Nc1ccccc1	6[16.7 µM]
Cc1cc(O)cc(=O)n1-c1cc(C(F)(F)F)cc(C(F)(F)F)c1	-11
O=C1NC(Cc2ccccc2)c2nc3ccc(Cl)cc3c(=O)n2-c2ccccc21 (stereo not given)	10
C[C@@H]1CN(c2ccc(N3CCN(C(=O)OC(C)(C)C)C[C@H]3C)cc2C#N)C[C@H](C)O1	27
Cc1cccc2nc(-c3ccccc3)c(-c3ccc(CN4CCC(n5cc(-c6ccccc6)[nH]c5=O)CC4)cc3)nc12	16
COc1cccc(CNC(=O)C[C@@H]2CC[C@@H]3[C@H](COc4ccc(NS(=O)(=O)c5ccccc5F)cc4C(=O)N3C)O2)c1	-22[16.7 µM]
CNC[C@@H]1OCCCC[C@H](C)Oc2ccc(NC(=O)Nc3c(C)noc3C)cc2C(=O)N([C@H](C)CO)C[C@@H]1C	14[16.7 µM]
CN1C(=O)c2cc(NS(=O)(=O)CC(F)(F)F)ccc2OC[C@H]2O[C@@H](CC(=O)NCC3CCCCC3)CC[C@@H]21	-19[16.7 µM]
COc1ccccc1S(=O)(=O)N(C)C[C@@H]1OCc2ccccc2-c2c(n(C)c3ccccc23)C(=O)N([C@@H](C)CO)C[C@H]1C	22[16.7 µM]
O=C(C[C@H]1CC[C@@H]2[C@H](COC[C@H](O)CN2Cc2cccc(Cl)c2)O1)NCC1CCCCC1	20[16.7 µM]
CCN(C(=O)CCc1cn(CC)c2ccccc12)c1ccc(Oc2cccnc2)cc1	-9
O=C(C[C@H]1C[C@H]2c3cc(NC(=O)C4CCOCC4)ccc3O[C@H]2[C@@H](CO)O1)NCc1cccnc1	5[16.7 µM]
CCCNC(=O)N1C[C@@H](O)COC[C@H]2O[C@H](CC(=O)N3CCN(C)CC3)CC[C@@H]21	0[16.7 µM]
CCCNC(=O)Nc1ccc2c(c1)C(=O)N(C)C[C@@H](OC)[C@H](C)CN[C@@H](C)CO2	11[16.7 µM]
CO[C@@H]1CN(C)C(=O)c2cc(NC(=O)C3CC3)ccc2OC[C@H](C)N(CCC(F)(F)F)C[C@@H]1C	-1[16.7 µM]
CC(C)NC(=O)Nc1ccc2c(c1)C(=O)N([C@H](C)CO)C[C@H](C)[C@H](CN(C)Cc1ccncc1)OCCCC[C@@H](C)O2	-5[16.7 µM]
CN1CCCc2nc(-c3ccccc3)ccc21	-2
Nc1ccn([C@@H]2O[C@H](C(=O)N[C@H](Cc3ccccc3)C(=O)N3CCN(CC(=O)N4CCCC4)CC3)[C@@H](O)[C@H]2O)c(=O)n1	8
CN1CCN(C(=O)C[C@@H]2C[C@@H]3c4cc(NC(=O)c5ccc6c(c5)OCO6)ccc4O[C@@H]3[C@@H](CO)O2)CC1	1[16.7 µM]
Cc1ccc(S(=O)(=O)Nc2ccc3c(c2)C(=O)N([C@@H](C)CO)C[C@H](C)[C@H](CN(C)Cc2ccccc2)O3)cc1	-23[16.7 µM]
O=C(c1ccccc1)N1CCC2CCN(CCc3ccccc3)CC21 (stereo not given)	5
COc1ccc(-c2cnc3c(c2)C(=O)N([C@@H](C)CO)C[C@@H](C)[C@H](CN(C)S(=O)(=O)c2ccc(OC)cc2)O3)cc1	0[16.7 µM]
C[C@@H]1CN([C@@H](C)CO)C(=O)CCCn2cc(nn2)CO[C@@H]1CN(C)Cc1ccc2c(c1)OCCN2C	-16[16.7 µM]

Compound activity: PubChem BioAssay, Broad Institute
